Screening data from PubChem BioAssay.
Sfp inh = qHTS Assay for Inhibitors of Bacillus subtilis Sfp phosphopantetheinyl transferase (PPTase); Potency, µM, for the others: max response, negative = inhibition, usual class: inhibitors; 310,000 compounds, 3.5% hits; Biochemical Sfp PPTase activity, qHTS; 4'-phosphopantetheinyl transferase ffp (Bacillus subtilis), Q9F4F7; active = well fitted inhibition curve with a large enough effect; inconclusive = small, poorly fitted or top-dose-only effect, or another doubt; inactive = no such curve, though single readings can be large or run the other way;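 note: the enzyme is Sfp with the accession as filed and its product quenches rhodamine fluorescence; potency is the fitted concentration of half-maximal effect; 0% = enzyme reaction without inhibitor and -100% = no enzyme wells; top concentration of the series not given in the record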
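After 15 min at room temperature with compound, 15 nM Sfp received 5 uM rhodamine-CoA plus 12.5 uM BHQ-2-ybbR (50 mM Hepes pH 7.6, 10 mM MgCl2). Rate came from the fluorescence difference over 30 min, ex 525/em 598 nm.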
CtBP-E1A inh = qHTS Assay for Inhibitors of the CtBP/E1A Interaction; CtBP / adenovirus E1A interaction (AlphaScreen); AlphaScreen GST-E1A/His-CtBP binding, 1536-well; active compounds read low; control for the full effect not named in the record; activity change, % (concentration not given with the values); 340,000 compounds, 0.49% hits; AID 651724, 2012; in the data active means activity change below about -65%; inconclusive means about -30% to -65%; inactive means above about -30%; note: % is set by controls: 0 for no effect and ±100 for the full control effect
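Protein mix (5X: 125 nM each GST-E1A, His-CtBP) was incubated with pinned compound 2 h at 37 deg C in dark, in 50 mM Tris pH 8.0 buffer with 300 mM NaCl. Glutathione donor and nickel acceptor beads followed; AlphaScreen signal read after 1 h.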
gsp antag = qHTS for Antagonists of gsp, the Etiologic Mutation Responsible for Fibrous Dysplasia/McCune-Albright Syndrome: qHTS; gsp-mutant cells, cAMP HTRF, 30 min; control for the full effect not named in the record; Potency, µM (highest dose often 76.9 µM), inactives show at the highest dose activity change, negative = inhibition, hits mostly inhibitors; 340,000 compounds, 0.4% hits; active = falling curve of any shape with a large fitted effect; inconclusive = falling curve, mostly with a smaller effect; inactive = flat or rising curve; cell line not stated here;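 note: intracellular cAMP measured with PDE inhibitor Ro 20-1724 present during compound exposure; potency is the fitted concentration of half-maximal effect; % is set by controls: 0 for no effect and ±100 for the full control effect; nearly all actives have a fitted effect of over 65% in size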
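Cells, 2000/well, grown 16–24 h in DMEM 10% FBS with 0.5 mg/ml G418, then compounds plus […] (300 uM addition stock), 30 min at 37C. cAMP read by HTRF (cAMP-d2 and anti-cAMP antibody-K in lysis buffer) after 30 min RT.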
ClpP mod = qHTS Assay for Activators of ClpP | Potency, µM (top dose mostly 57.5 µM), inactives show at the highest dose activity change, negative = active | ATP-dependent Clp protease proteolytic subunit (Bacillus subtilis (strain 168)), P80244 | purified B. subtilis ClpP, FRET peptide cleavage, 20 min | 340,000 compounds, 1.9% hits; active = well fitted falling curve with a large enough effect; inconclusive = small, poorly fitted or top-dose-only effect; inactive = no such curve, though single readings can be large or run the other way; note: potency is the fitted concentration of half-maximal effect; the source files actives as falling curves though it sought activators and does not explain the sign; nearly all actives have a fitted effect of over 65% in size; many hits overshoot -100%
Target sequence (P80244 whole entry, looked up): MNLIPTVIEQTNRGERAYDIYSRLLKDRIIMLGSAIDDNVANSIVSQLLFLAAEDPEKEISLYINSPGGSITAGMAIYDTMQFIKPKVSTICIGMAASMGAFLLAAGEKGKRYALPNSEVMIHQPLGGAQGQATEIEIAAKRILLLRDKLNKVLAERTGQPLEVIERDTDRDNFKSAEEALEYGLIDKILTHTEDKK
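Purified B. subtilis ClpP, 10 microg/mL final in Tris/HCl pH8 with KCl, BSA, glycerol and Tween-20, cleaved an Abz/nitrotyrosine-quenched decapeptide. Fluorescence (ex 320, em 430) was read at 0 and 20 min at room temperature. Delta was normalized to 5.8 microM ADEP and DMSO/no-enzyme controls.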
TRPV1 PAM = HTS Assay for Compounds that Act as Potentiators of the Vanilloid Receptor 1 | Transient receptor potential cation channel subfamily V member 1 (Homo sapiens), Q8NER1 | TRPV1-expressing cells, Fluo-8 calcium influx, capsaicin EC20 potentiation; host cell line not named in the record; control for the full effect not named in the record | potentiation, % at 8.33 µM | 320,000 compounds, 0.02% hits | AID 540277, 2011; active means potentiation above 80%; inconclusive means 30% to 80%; inactive means below 30%; note: 0% is about no effect
Target sequence (Q8NER1 whole entry, looked up): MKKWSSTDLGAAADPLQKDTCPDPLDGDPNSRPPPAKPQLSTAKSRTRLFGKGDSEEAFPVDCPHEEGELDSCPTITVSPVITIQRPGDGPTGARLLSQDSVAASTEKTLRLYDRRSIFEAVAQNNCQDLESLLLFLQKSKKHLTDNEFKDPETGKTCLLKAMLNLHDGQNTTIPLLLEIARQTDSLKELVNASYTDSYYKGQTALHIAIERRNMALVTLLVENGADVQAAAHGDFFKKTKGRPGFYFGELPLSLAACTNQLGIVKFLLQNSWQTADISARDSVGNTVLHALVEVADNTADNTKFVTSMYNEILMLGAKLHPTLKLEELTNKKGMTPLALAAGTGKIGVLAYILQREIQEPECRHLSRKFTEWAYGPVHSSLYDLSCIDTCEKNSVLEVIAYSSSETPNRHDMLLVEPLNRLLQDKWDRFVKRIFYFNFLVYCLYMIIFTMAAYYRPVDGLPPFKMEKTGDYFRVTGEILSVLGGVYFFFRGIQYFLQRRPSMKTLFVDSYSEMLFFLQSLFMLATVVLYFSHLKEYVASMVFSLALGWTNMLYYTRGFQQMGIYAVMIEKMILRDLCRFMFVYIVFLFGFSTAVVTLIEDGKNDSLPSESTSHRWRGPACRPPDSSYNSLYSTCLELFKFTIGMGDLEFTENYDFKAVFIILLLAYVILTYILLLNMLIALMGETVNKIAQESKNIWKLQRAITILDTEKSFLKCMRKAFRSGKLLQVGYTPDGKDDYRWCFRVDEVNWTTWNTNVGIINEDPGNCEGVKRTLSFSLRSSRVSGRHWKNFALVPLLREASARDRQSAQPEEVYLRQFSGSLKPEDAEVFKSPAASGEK
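TRPV1-expressing cells were cultured overnight at 35.5C and loaded with Fluo-8 calcium dye for 40 to 90 min at room temperature. After a 10 s baseline, compound was added and calcium influx was read kinetically for 3 min (ex 480/em 520 nm).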
Menin-MLL FL inh = qHTS Assay for Inhibitors Targeting the Menin-MLL Interaction in MLL Related Leukemias: Competition With Fluorescein Labeled MLL-derived Peptide; Fluorescence polarization, fluorescein-MLL peptide displacement from menin; 290,000 tested, under 10 active; FP activity change, % at 61.4 µM; inconclusive = falling polarisation curve, or a change in total fluorescence; inactive = total fluorescence flat and polarisation flat or rising; no compound was filed as active; the % refers to the polarisation; negative = inhibition;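 note: % of control where 0% means no effect; inhibitors lower the polarisation; unlabelled MLL peptide was the positive control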
gsp ag = qHTS for Agonist of gsp, the Etiologic Mutation Responsible for Fibrous Dysplasia/McCune-Albright Syndrome: qHTS. Potency, µM (doses to about 76.9 µM), for inactives: at the top dose activation (cAMP increase), usual class: activators. 340,000 compounds, 0.13% hits. gsp mutant cells, cAMP HTRF, 30 min; control for the full effect not named in the record; active = well fitted activation curve with a large enough effect; inconclusive = small, poorly fitted or top-dose-only effect, or another doubt; inactive = no such curve, though single readings can be large or run the other way; cell line not stated here;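 note: phosphodiesterase inhibitor Ro 20-1724 added with compounds to block cAMP breakdown; potency is the fitted concentration of half-maximal effect; nearly all actives have a fitted effect of over 60% in size; about a fifth of the inactives were tested at one dose only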
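Cells stably selected in G418 were plated at 2000/well, grown 16-24 hr, then given compounds in DMSO with the PDE inhibitor […] (300 uM solution added) for 30 min at 37C; cAMP was read by HTRF.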
* marks the source's active call; other numbers are inactive results; ? = inconclusive; · = no result given; & = joins results of further samples; [ ] = remark or other dose. No enrichment for hits; 5.3% or so of the library scored in one or more.

SMILES	Sfp inh	CtBP-E1A inh	gsp antag	ClpP mod	TRPV1 PAM	Menin-MLL FL inh	gsp ag
COc1cccc(CNC(=O)COC(=O)C2CCN(c3ccc(C(F)(F)F)cn3)CC2)c1	·	14	3%	-18%	-1	·	8%
CC(=O)NC(=S)Nc1ccc(NC(=O)c2cccnc2Cl)cc1	15%	6	5%	-2.9%	2	-0.3	-19%[15.4 µM]
Cn1c(=O)c2c(ncn2Cc2nnc(N)s2)n(C)c1=O	2%	0	2%	·	-8	0.8	38%[15.4 µM]
COc1cc(OC)cc(C(=O)N[C@H](C(=O)OCc2cc(=O)oc3cc(C)ccc23)C(C)C)c1	2%	-6	-20%	-4.5%	-8	9.3	-4%
CC(C)CCn1c(O)c(N=NC(=O)c2ccco2)c2ccccc21	?	4	-12%	-1.0%	-6	0.8	-26%
COc1cccc(CNC(=O)CCC2CCCN(C(=O)c3ccoc3C)C2)c1 (configuration not stated)	5%	1	5%	·	-1	0.0	0%
Cc1ccc(NC(=O)COC(=O)Cn2ccc(C(F)(F)F)n2)cc1Cl	·	15	14%	0.2%	-7	·	5%
O=C(/C=C/c1ccccc1)NC(NC(=S)Nc1cc(Cl)ccc1Cl)C(Cl)(Cl)Cl (configuration not stated)	-3%	-2	-18%	-2.1%	1	·	?
CC(C)(C)N(Cc1ccccc1)C(=O)COC(=O)c1cccc([N+](=O)[O-])c1	13%	-9	7%	·	-5	0.9	23%
COc1cc(C2C=C(Nc3ccccc3)C(=O)N2c2ccccc2)ccc1O (configuration not stated)	?	-23	-4%	-25%	-3	9.7	21%[15.4 µM]
COc1ccccc1NC(=O)CSc1nc2nc(C)cc(C)c2c(=O)[nH]1	18%	-14	5%	-9.4%	0	0.1	5%
COC(=O)c1cc(OC)c(OC)cc1NC(=O)c1cccc(C)c1	5%	-7	-4%	?	7	-1.7	12%
Cc1cc(NS(=O)(=O)c2ccc(NC(=O)c3cc4cc(Br)ccc4oc3=O)cc2)no1	8%	·	-23%	·	-5	-0.3	0%[15.4 µM]
CCCCN(C)CCCNC(=O)c1ccc(N2CCCC2=O)cc1	23%	-1	17%	1.5%	4	4.9	-11%
Cc1cccnc1NC1(C(F)(F)F)N=C2SCCN2C1=O (configuration not stated)	11%	-1	-10%	·	-4	2.3	4%
Cc1ccc(-n2c(=S)[nH]c3c(oc4ccccc43)c2=O)cc1C	-14%	-11	8%	-6.7%	-22	11	?
COc1ccccc1C(=O)NC(=O)CSc1nnc(C)s1	19%	5	-7%	-1.2%	7	·	26%
O=C1C=C(N2CCOCC2)c2cccc3cccc1c23	·	?	·	1.5%	·	·	-15%
CN(Cc1ccccc1)C(=O)Cn1cccc1C(=O)c1ccccc1	-26%	-2	10%	1.9%	6	-4.1	-3%
COc1ccc(-c2nnc(SCCOc3cccc(C)c3)n2N)cc1	14%	-10	22%	-0.2%	-5	1.9	-4%
CC1CC(C)CN(C(=O)COc2cccnc2[N+](=O)[O-])C1 (configuration not stated)	·	5	2%	·	·	·	26%
COc1cccc(C(=O)NCCNC(=O)c2ccccn2)c1	9%	2	9%	·	1	-7.3	2%
CCOC(=O)c1c(-c2ccccc2)csc1NC(=S)NC(=O)c1ccccc1	-4%	0	5%	-1.1%	8	0.3	-12%
C/C(=N\NC(=O)c1cccc([N+](=O)[O-])c1)c1cccs1	12%	-2	6%	·	-7	2.2	2%[15.4 µM]
Cc1c(Br)c([N+](=O)[O-])nn1CC(=O)Nc1ccc(C(C)C)cc1	6%	4	?	-1.3%	7	-3.1	7%[15.4 µM]
COc1ccc(C(C#N)c2ccc(Cl)nn2)cc1 (configuration not stated)	12%	0	10%	·	6	-4.0	1%[15.4 µM]
CCCCNC(=O)Nc1cc(C)on1	1%	3	15%	-0.5%	11	4.5	-2%
CC1Sc2ccc(S(=O)(=O)CCC(=O)N3CCN(c4cccc(Cl)c4)CC3)cc2NC1=O (configuration not stated)	-2%	-20	?	-4.3%	?	·	9%
Cc1noc(C)c1COC(=O)c1ccc(-c2nc3ccccc3s2)s1	-30%	3	-17%	20µM*	-10	0.2	15%
CC1CCCC(C)N1C(=O)COC(=O)/C=C/c1ccc(Br)o1 (configuration not stated)	·	?	1%	1.1%	·	·	2%
COc1ccc(Cl)cc1NC(=O)CN(C)C(=O)Cc1ccc2c(c1)CCC2	-5%	-14	0%	-2.3%	8	?	-7%
CCS(=O)(=O)N1CCN(S(=O)(=O)c2ccc(S(=O)(=O)NC3CC3)cc2)CC1	12%	5	3%	·	24	0.4	?
COCCNC(=O)C1CC(=O)N(C2CCCC2)C1 (configuration not stated)	12%	6	4%	0.5%	13	2.9	8%
Cc1cc(C)cc(CSc2nnc(C)c(=O)[nH]2)c1	11%	-11	-15%	-2.4%	1	3.5	13%
O=C(/C=C/Nc1ccccc1C(=O)O)c1cccs1	11%	4	1%	-21%	11	11	-7%
COc1ccc(N/C(C)=C2/C(=O)C(=O)N(CCO)C2c2ccc(Br)cc2)cc1 (configuration not stated)	12%	-2	10%	2.7%	-9	5.3	3%
N/C(=N\OC(=O)c1ccc(Br)cc1)c1cccc([N+](=O)[O-])c1	-14%	·	5%	0.0%	6	-0.9	-1%
Cc1ccccc1-c1nc(S(=O)(=O)c2ccc(Br)cc2)c(NCc2cccnc2)o1	-7%	-9	-18%	-19%	29	-2.0	0%
COC(=O)CSc1nnc([C@H](CC(C)C)NC(=O)OC(C)(C)C)o1	14%	12	1%	-0.7%	0	3.2	-1%
COc1ccc(CCn2c(C)cc(C(=O)CSc3nnnn3-c3ccccc3)c2C)cc1OC	?	6	-18%	0.5%	2	0.2	-47%[inhibitor]
O=C(COc1ccccc1[N+](=O)[O-])Nc1ccc2oc(=O)ccc2c1	-7%	3	6%	-1.2%	7	·	24%
CCOC(=O)c1c(CN2CCOCC2)n(-c2ccccc2)c2cc(Br)c(O)cc12	-19%	-6	1%	-2.4%	-15	-0.1	?
CCN(CC)C(=O)Cn1cc(C(=O)C(=O)NCCc2c[nH]c3ccccc23)c2ccccc21	-5%	-11	-24%	-2.7%	10	0.9	20%
COC(=O)CN1C(=S)N(c2ccc(F)cc2)C(=O)C1CC(=O)Nc1ccc(OC)cc1 (configuration not stated)	5%	·	-11%	-2.3%	-9	-1.5	-13%
CCN1C(=O)C(CC(=O)Nc2ccc(OC)cc2)N(CCCN2CCN(c3ccc(F)cc3)CC2)C1=S (configuration not stated)	15%	0	-43%	1.3%	-4	-1.9	-10%[15.4 µM]
CC1=C(C(=O)Nc2ccc(C(=O)NCCC(C)C)cc2)SCCO1	23%	2	8%	·	-42	-1.2	22%
Cc1nc(N2CCN(C)CC2)c2c3c(sc2n1)CCCC3	8%	2	7%	-2.7%	0	·	-15%
COc1ccccc1N1CCN(C(=O)CNC(=O)c2cn(-c3ccccc3OC)c(=O)c3ccccc23)CC1	9%	2	-21%	-15%	5	-0.7	-24%
CC(C)=CCCC(C)CN1CCC(n2nccc2NC(=O)c2ccc3c(c2)OCO3)CC1 (configuration not stated)	8%	0	3%	2.0%	1	·	-3%
COC(=O)c1ccc(CN2[C@H](C(=O)OC)C[C@@]3(O)[C@@H](O)[C@@H](O)[C@@H](O)C[C@@H]23)cc1	4%&9%	3	1%	-0.9%	14	1.5&4.8	·
CCN(CC)C(=O)c1nc[nH]c1C(=O)N1CCc2ccccc2C1	·	7	10%	-1.5%	4	·	·
CCC1S/C(=N/N=C/c2ccco2)N(Cc2ccccc2C)C1=O (configuration not stated)	-21%	0	-16%	1.2%	-1	11	-10%
CC(=O)Nc1ccc(S(=O)(=O)/N=C2\SCCN2S(=O)(=O)c2ccc(NC(C)=O)cc2)cc1	?	-3	0%	-5.5%	-4	-3.0	16%
O=C1CC(=O)Nc2ccccc2N1	·	-22	·	-1.6%	·	·	-46%[inhibitor]
Cc1ccc(-c2nn(-c3ccccc3)cc2CNCc2ccccc2)cc1	18µM*	11	8%	·	-2	3.9	-7%[15.4 µM]
CCC1=C(OC(=O)N(CC)CC)N2C(=O)OC(=NCC3CC3)[C@]2(Cc2ccccc2)[C@H]2C1=CC[C@H]1C(=O)N(CC)C(=O)[C@H]12	9%&14%	·	-24%	-3.6%	8	-8.0&2.9	-31%[inhibitor]
COc1ccc(-n2c(=S)[nH]c3ncccc3c2=O)cc1	-2%	1	7%	-0.6%	15	-0.3	-44%[inhibitor]
COc1ccc(NC(=O)NNC(=O)C(C)Oc2ccc(C(C)C)cc2)c(OC)c1 (configuration not stated)	-1%	1	-2%	1.0%	-5	·	18%
COC(=O)c1ccccc1NC(=O)Cn1cnc2ccc(S(=O)(=O)N3CCC(C)CC3)cc2c1=O	89µM*	2	1%	-1.6%	-6	-0.8	7%
CC1(c2ccccc2)NC(=O)N(CC(=O)Nc2ccc(S(=O)(=O)NC3=NCCCCC3)cc2)C1=O (configuration not stated)	·	-17	12%	-2.1%	·	·	-13%
COc1ccc(NC(=O)c2cc(C)nc3ccccc23)c(OC)c1	27%	-3	-19%	0.1%	-1	-0.1	-3%[15.4 µM]

An excerpt from above in order of the Sfp inh value, lowest first:
Molecule	Sfp inh	CtBP-E1A inh	gsp antag	Menin-MLL FL inh	gsp ag
CCCCNC(=O)Nc1cc(C)on1	1%	3	15%	4.5	-2%
Cn1c(=O)c2c(ncn2Cc2nnc(N)s2)n(C)c1=O	2%	0	2%	0.8	38%[15.4 µM]
COC(=O)CSc1nnc([C@H](CC(C)C)NC(=O)OC(C)(C)C)o1	14%	12	1%	3.2	-1%
